# Screens deposited in PubChem BioAssay by several laboratories.
# MT1-MMP promoter – inhibitors of MT1-MMP promoter transcription, cell-based, luciferase reporter, luminescence (AID 618). MT1-MMP promoter luciferase reporter cells, luminescence. calls from a first round at 10 µM; hits with a dose series show EC50 in µM. hit rate 0.62% among 87,000;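 active = over half of the reporter light lost at 10 µM or EC50 under 50 µM; inactive = the rest and hits that failed the dose series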;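 note: actives suppress MT1-MMP promoter-driven transcription so potencies describe inhibitors; HT1080 fibrosarcoma cells; overnight exposure; toxic or luciferase-blocking compounds were not removed from the actives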
# Hsc70 ATP site – small molecules displacing fluorescent ligand from Hsc70 – biochemical, fluorescence polarization, primary screen (AID 568) | Hsc70 fluorescence polarization, probe displacement; higher % means a stronger effect; strong numbers were not always called active | displacement, % at 20 µM, or IC50 in µM where a hit was titrated | 83,000 tested, under 10 active;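 active = displacement above 50% without optical interference and an IC50 on retest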;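 note: ATPase domain with a fluorescein-tagged ATP probe; 0% = vehicle and 100% = excess ADP; read after one hour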
# WNV NS2B-NS3 inh – WNV NS2B-NS3 proteinase inhibition; P06935; WNV NS2B-NS3 protease, fluorogenic substrate Ex360/Em465; stronger effect = lower value; z-score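 (tested at a level between 10 and 100 µM)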; hit rate 0.18% among 65,000; AID 577;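 active = z-score at -3 or under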;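 note: score is relative to mean and spread of the compound wells of a plate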
# Target sequence (P06935 1371-1501 limits assumed): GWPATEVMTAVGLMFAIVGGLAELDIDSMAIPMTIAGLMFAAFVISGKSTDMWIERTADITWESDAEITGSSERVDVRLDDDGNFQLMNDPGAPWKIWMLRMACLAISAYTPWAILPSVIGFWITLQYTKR
# Target sequence (P06935 1502-1679 limits assumed): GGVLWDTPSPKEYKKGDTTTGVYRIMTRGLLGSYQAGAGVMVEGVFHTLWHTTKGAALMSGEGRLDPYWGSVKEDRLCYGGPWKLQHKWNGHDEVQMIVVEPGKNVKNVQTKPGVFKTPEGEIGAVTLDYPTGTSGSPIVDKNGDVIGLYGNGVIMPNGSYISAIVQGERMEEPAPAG
# * marks the source's active call; other numbers are inactive results; i = inactive; . = no result given. A portion of the library. The share of hits here may be higher or lower than overall.
Structure,MT1-MMP promoter,Hsc70 ATP site,WNV NS2B-NS3 inh
Cc1cc2cc(CN(CC3CCCO3)C(=O)c3cnccn3)c(=O)[nH]c2cc1C (stereo unspecified),i,0.1%,1.18
CCOc1cc2c(cc1OCC)C(C(=O)O)C(c1ccc(OC)c(O)c1)N(C)C2=O (stereo unspecified),i,4.9%,1.17
CCC(C(=O)Nc1nc(C)cs1)c1ccccc1 (stereo unspecified),i,0.1%,-0.59
COc1cc(OC)cc(-c2nnc(SCc3cccnc3)o2)c1,i,5.9%,-1.22
CCN(CC)C(=O)C(=O)Nc1cc(C(F)(F)F)ccc1Cl,i,4.1%,.
Cc1cc(C)nc(NCC(O)COc2ccccc2C)n1 (stereo unspecified),i,-4.7%,0.36
COc1ccc(C2C(C(=O)N3CCC(C)CC3)c3ccccc3C(=O)N2C)cc1 (stereo unspecified),i,3.1%,-0.05
O=C(Nc1ccc2nc(C3CC3)n(Cc3ccc(F)cc3)c(=O)c2c1)c1ccco1,i,5.1%,0.5
O=C(Cn1nc(C(F)(F)F)c2c1CCC2)NC1CCCCC1,i,-7.1%,-0.7
COC(=O)C1=C(C)NC(=O)/C1=C\c1cccs1,i,-2.3%,.
CCOc1ccc(S(=O)(=O)N2CCCCCC2)cc1,i,-1.2%,.
O=c1[nH]c(-c2ccc(Cl)cc2)nc2c1cnn2-c1ccccc1,i,7.5%,1.19
CCOc1ccc(S(=O)(=O)Nc2cc(OC)ccc2OC)cc1,i,1.6%,-0.53
Cc1c(-n2cc(C(=O)c3cc(Cl)ccc3O)cc(C#N)c2=O)c(=O)n(-c2ccccc2)n1C,i,-2.0%,.
Cc1nn(-c2ccccn2)c2nc(-c3cccs3)cc(C(=O)NCc3ccco3)c12,i,-1.2%,.
COC(=O)c1sc2nc(-c3ccco3)ccc2c1N,i,0.2%,0.6
CCOc1ccccc1CN1C(=O)NC(C)(c2ccccc2)C1=O (stereo unspecified),i,-1.1%,-0.17
CS(=O)(=O)N1CCC(C(=O)NCc2ccc(F)cc2Cl)CC1,i,0.1%,1.43
CCCCCn1c(CCC(=O)Oc2ccccc2OC)nc2c1c(=O)[nH]c(=O)n2CCCC,i,4.6%,.
COc1ccccc1C1/C(=C(/O)c2ccccc2)C(=O)C(=O)N1CC(C)O (stereo unspecified),i,-2.3%,-1.26
O=C(Nc1ccc2c(c1)CCC2)C1CCN(c2ncccn2)CC1,i,-15.2%,0.3
Cc1ccc(/C=C/C2=NN(Cc3ccccc3Cl)C(=O)CC2)cc1,i,-1.2%,.
COc1ccc(-n2ncc3c(Nc4cccc(C)c4)ncnc32)cc1,i,-12.1%,-1.09
CCOC(=O)C1CCCN(C(=O)c2ccco2)C1 (stereo unspecified),i,5.8%,-0.48
COc1ccc(S(=O)(=O)Nc2ccc3c(c2)OCO3)cc1C(=O)O,i,5.1%,-0.21
CCOc1ccc(C2NC(=O)C(C#N)=C(S)N2c2ccc(C)cc2)cc1OC (stereo unspecified),i,1.3%,.
O=C(NCc1ccccn1)c1ccc(CS(=O)(=O)Cc2ccc(Cl)cc2)o1,i,0.1%,-0.31
N/C(=N\OC(=O)Cc1ccc(Cl)cc1)c1ccccn1,i,2.2%,.
CC(C)Cn1c(N)c(C(=O)NCC2CCCO2)c2nc3ccccc3nc21 (stereo unspecified),i,0.5%,2.49
CCc1ccc(-c2nc(CN3CCC(C(=O)NCc4ccc(F)cc4)CC3)c(C)o2)cc1,i,-1.1%,-0.08
C=CCn1c(SCC(=O)Nc2c(C)n(C)n(-c3ccccc3)c2=O)nc2scc(-c3ccccc3)c2c1=O,i,-12.7%,.
COc1cccc(CNC(=O)C2CCN(S(=O)(=O)N3CCCC3)CC2)c1,i,1.1%,-1.08
COC(=O)CNc1n[nH]c(=S)[nH]c1=O,i,-0.1%,-0.66
CCOc1cc(C(=O)N(C)c2ccccc2)cc(OCC)c1OCC,i,1.7%,0.39
Cc1ccc(NC(=O)CSC2=C(C#N)C(c3ccco3)C3=C(CC(C)(C)CC3=O)N2)cc1 (stereo unspecified),i,2.0%,0.24
CCOC(=O)c1ccc(NC(=O)COc2ccc(-n3cnnn3)cc2)cc1,i,1.8%,-1.15
O=C(CCCN1C(=O)c2ccccc2C1=O)Nc1ccc(Br)cn1,i,-3.3%,-1.03
Cc1ccc(C2/C(=C(/O)c3ccccc3)C(=O)C(=O)N2CCN2CCOCC2)o1 (stereo unspecified),i,-4.6%,-0.59
CCc1cc2c(=O)n(Cc3ccco3)c(SCC(=O)N3CCCc4ccccc43)nc2s1,i,-17.8%,0.8
Cc1nc(NC(=O)COC(=O)C(NC(=O)c2ccco2)C(C)C)c(Cl)cc1Cl (stereo unspecified),i,-0.2%,2.3
CCC(=O)NC(Nc1cc(C)ccn1)(C(F)(F)F)C(F)(F)F,i,0.8%,.
COc1ccc(Cn2nnnc2C(CC(C)C)N2CCN(c3ccccc3)CC2)cc1 (stereo unspecified),i,-5.7%,1.82
Cn1c(N)c(C(=O)COC(=O)c2cccs2)c(=O)n(C)c1=O,i,5.3%,0.58
Fc1ccc(-n2[nH]nnc2=S)cc1N1CCCC1,i,-1.5%,0.87
CCOC(=O)C(CC(C)C)CP(=O)(O)CNC(=O)OCc1ccccc1 (stereo unspecified),i,-2.3%,0.08
O/N=C(/Cc1ccccn1)c1ccccc1,i,0.2%,-0.09
O=C(CSc1nnc(NC(=O)CN2CCOCC2)s1)Nc1ccccc1,i,0.6%,0.26
CCOc1ccc(/C=N/n2cnnc2)cc1,i,-2.5%,-1.01
CC(=O)Nc1ccc(S(=O)(=O)Nc2nc3ccccc3nc2N2CCCCCC2)cc1,i,3.6%,.
CSc1nc(C2CC2)cc(-c2cccs2)c1C#N,i,-1.6%,-0.38
CCOC(=O)c1cnn(-c2ncnc3sc(CC)cc23)c1N,i,-0.6%,.
CSCC[C@H](Nc1ncnc2sc(C)c(C)c12)C(=O)O,i,2.6%,.
CCOC(=O)N1CCC(NC(=O)CCc2c(C)nc3c(c(C)nn3-c3ccccc3)c2C)CC1,i,1.0%,-0.96
Cc1cccc(C)c1NC(=O)C1CC(=O)N(C(C)C)C1 (stereo unspecified),i,-1.7%,-0.14
CCCNC(=O)Cc1cc(=O)[nH]c(=O)[nH]1,i,-0.3%,1.06
NC(=O)c1cnn2c1NC(c1ccc(F)cc1)CC2C(F)(F)F (stereo unspecified),i,-0.3%,-0.8
COC(=O)c1[nH]c2cccc(OC)c2c1NC(=O)CN1CCN(c2cccc(OC)c2)C(C)C1 (stereo unspecified),i,-1.0%,-0.33
Cc1ccc2oc(=O)c3cnn(CC(=O)N(CCC(C)C)Cc4ccco4)c3c2c1,i,-1.9%,-0.43
COc1ccc(NC(C)=O)cc1NC(C)C(=O)Nc1ccc(F)c(F)c1F (stereo unspecified),i,4.5%,.
c1coc(CNCC2OCCc3ccccc32)c1 (stereo unspecified),i,5.9%,0.77

# The list continues:
Structure,MT1-MMP promoter,Hsc70 ATP site,WNV NS2B-NS3 inh
CC(C)c1nc(SCC(=O)N2CCN(c3ccccc3)CC2)c2c(=O)n(C)c(=O)n(C)c2n1,i,-4.8%,0.39
CCC(=O)N(Cc1cc(=O)[nH]c2ccccc12)c1cccc(C)c1,i,-1.6%,1.17
N#CC1=C(N)Oc2n[nH]c(-c3ccccc3)c2C1c1ccsc1 (stereo unspecified),i,3.2%,.
CCCSc1nc2c(cnn2-c2ccc(Cl)cc2)c(=O)[nH]1,i,5.9%,-1.01
CCn1c(=N)n(CC(=O)C23CC4CC(CC(C4)C2)C3)c2ccccc21,i,1.1%,-0.23
CCCOc1ccc(/C(O)=C2/C(=O)C(=O)N(CCCN3CCOCC3)C2c2ccncc2)cc1 (stereo unspecified),i,6.1%,0.29
Clc1ccc(Nc2nc(-c3ccncc3)cs2)cc1,i,10.1%,.
Cc1cc(C)nc(NC(=O)c2cc3ccccc3o2)n1,i,0.5%,0.23
CCOC(=O)CSc1nnc(CNC(=O)Cc2ccccc2)n1C,i,3.7%,0.61
COc1ccc(C(O)c2nc3ccccc3n2C)cc1OC (stereo unspecified),i,18.1%,-0.73
CC(=O)c1c(C)nc(-c2ccc(Cl)cc2Cl)n1O,i,-7.8%,0.34
COc1ccc(COC(=O)C2=C(C)NC(=O)NC2c2ccc(O)c(OC)c2)cc1 (stereo unspecified),i,-2.4%,-0.56
C=CCn1c(SCC(=O)OCc2ccccc2)nc2c1c(=O)n(C)c(=O)n2C,i,-0.9%,1.06
c1cc2c3c(cccc3c1)C(N1CCCCCC1)=N2,i,11.2%,.
C/C(=C1/SC(=S)N(CCC(=O)O)C1=O)c1ccc(O)cc1,i,-2.8%,-0.52
Cc1ccc(Cl)cc1N1CCN(CC(=O)Nc2ccc3[nH]c(=O)[nH]c3c2)CC1,i,-8.2%,-1.22
COc1ccc(C(=O)n2nc(-c3ccccc3)nc2N)cc1OC,i,-4.1%,-1.42
COC(=O)CSc1nnc(-c2ccc3c(c2)OCO3)n1C,i,0.4%,.
COc1ccc2cc3cc(C(=O)NCc4ccccn4)oc3nc2c1,i,-5.7%,5.97
CCC(=O)Oc1ccc(-c2nc(-c3cccnc3)no2)cc1,i,-3.0%,0.17
COc1nc(Nc2ccc(-c3nc4ccccc4o3)cc2)nc(N2CCOCC2)n1,i,-5.9%,0.59
CCCCn1nnnc1SCC(=O)N1CCN(C(=O)c2ccco2)CC1,i,-3.6%,-0.63
CCOc1ccc(C2OC34CCCCC3C(C#N)(C#N)C2(C#N)C(=N)O4)cc1OC (stereo unspecified),i,3.6%,.
CC(=O)Nc1ccc(N2C(=O)CC(N3CCN(Cc4ccc5c(c4)OCO5)CC3)C2=O)cc1 (stereo unspecified),i,3.1%,.
CC1=C(C#N)C2C(/C1=N/O)C2(C)C (stereo unspecified),i,-3.4%,1.78
CCCCNC(=O)OCCNC(=O)Oc1cccc(C)c1,i,2.0%,-1.13
COc1cccc(NC(=O)c2ccn(C)n2)c1,i,-0.6%,.
Cc1cccc(NC2=NC(C)(C)N=C(N)N2)c1C,i,5.9%,-0.58
COc1ccc(S(=O)(=O)Nc2ccc(C)cc2)cc1OC,i,-5.9%,0.14
COc1cc(NC(=O)c2noc3c2CCCC3)c(OC)cc1Cl,i,-3.3%,-0.51

# Brought forward from above: two entries, followed by the next part.
Structure,MT1-MMP promoter,Hsc70 ATP site,WNV NS2B-NS3 inh
COc1ccc(S(=O)(=O)Nc2ccc(C)cc2)cc1OC,i,-5.9%,0.14
COc1cc(NC(=O)c2noc3c2CCCC3)c(OC)cc1Cl,i,-3.3%,-0.51
COc1ccc(OC)c(NC(=O)CSc2nnc(C3CCCCC3)n2-c2ccccc2)c1,i,5.1%,.
Cc1[nH]nc2c1C(c1cccc(OC(=O)N3CCOCC3)c1)C(C#N)=C(N)O2 (stereo unspecified),i,2.0%,-1.14
CC(=O)c1cccc(NC(=O)C=C(C)C)c1,i,1.8%,-0.28
CC1(C)CC(=O)C(C=Nc2cccnc2)=C(O)C1,i,-2.6%,-1.2
CC(C)c1nnc(NC(=O)c2ccc(S(=O)(=O)N3CCOCC3)cc2)s1,i,-0.3%,0.34
CCCOC(=O)NC(CC)COC(=O)Nc1cccc(C)c1C (stereo unspecified),i,-1.0%,-0.09
Cc1ccc(N2C(=O)c3cccc4c(N5CCN(C)CC5)ccc(c34)C2=O)c2cccnc12,i,2.9%,-0.53
O=C1NC(=O)C2C1C(c1ccccc1)N1C3C(=O)NC(=O)C3C(c3ccccc3)N21 (stereo unspecified),i,1.6%,.
CCc1cc(=O)n2[nH]c(C)c(-c3ccccc3OC)c2n1,i,1.0%,-0.69
Cc1ccccc1C(=O)N=c1c(C#N)cc2c(=O)n3cccc(C)c3nc2n1Cc1ccco1,i,-12.4%,.
Cn1nc(C(=O)Nc2cccc(C(F)(F)F)c2)ccc1=O,i,9.7%,0.65
CC(=O)c1cc(F)c(N2CCN(CCC#N)CC2)cc1C,i,-9.0%,-1.32
CC1CCCCN1C(=O)c1cnn2c(C(F)(F)F)cc(-c3ccco3)nc12 (stereo unspecified),i,5.1%,0.14
COCCn1c(SCC(=O)Nc2ccc(S(=O)(=O)N(C)C)cc2)nc2ccccc21,i,0.6%,.
Nc1ccc(Nc2ccccc2)cc1,i,-3.1%,.

# Taken from above:
# Reading for CC1CCCCN1C(=O)c1cnn2c(C(F)(F)F)cc(-c3ccco3)nc12 (stereo unspecified) under Hsc70 ATP site: 5.1%
# Reading for Cc1ccccc1C(=O)N=c1c(C#N)cc2c(=O)n3cccc(C)c3nc2n1Cc1ccco1 under Hsc70 ATP site: -12.4%

# Random excerpt: 5 records from the list, in no set order.
Structure,MT1-MMP promoter,Hsc70 ATP site,WNV NS2B-NS3 inh
CC1CCCCN1C(=O)c1cnn2c(C(F)(F)F)cc(-c3ccco3)nc12 (stereo unspecified),i,5.1%,0.14
CC(=O)c1cc(F)c(N2CCN(CCC#N)CC2)cc1C,i,-9.0%,-1.32
Cc1[nH]nc2c1C(c1cccc(OC(=O)N3CCOCC3)c1)C(C#N)=C(N)O2 (stereo unspecified),i,2.0%,-1.14
CCc1cc(=O)n2[nH]c(C)c(-c3ccccc3OC)c2n1,i,1.0%,-0.69
CC(=O)c1cccc(NC(=O)C=C(C)C)c1,i,1.8%,-0.28
